RanGTP-Impb inh: inhibitors of RanGTP-importin-beta interaction, primary screen, biochemical, FRET, CFP-Ran, YFP-importin-beta, homogeneous; cell-free CFP-Ran/YFP-importin-beta FRET ratio; inhibition, % (no concentration beside the values); 300,000 tested, 1.1% active;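 active = most replicates above 15%; inconclusive = exactly half above 15%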;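 note: 0% = DMSO wells and 100% = Ran loaded with GDP instead of GTP; wells of about 40 µL received 100 nL stock; the first replicate is given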
A1 inh: inhibitors of the anti-apoptotic protein A1, read as caspase activation. MEF A1-2A-BIM cells, Caspase-Glo 3/7 luminescence, 3 h; percent of clofoctol response, vehicle zero. caspase activation, % (concentration not given with the values). 330,000 tested, 0.066% active. AID 2462;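 active = over half of replicate activation scores above 10%, or exactly half above 10 with the replicate mean above 10; inconclusive = replicate mean below 10 yet half the replicates above 10; inactive = over half of replicates below 10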;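 note: wells of about 30 µL received 50 nL stock; many hits fall short of the cut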
T cruzi repl: T. cruzi replication inhibition | T. cruzi beta-gal in NIH3T3, luminescence, 90 h | inhibition, % (test concentration not listed) | 300,000 tested, 1.4% active | AID 1885;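 active = mean inhibition across valid replicates above about 55%, limit read from the data; inconclusive = mean below that limit but half or more replicates reach it; inactive = mean below it, under half of replicates reach it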;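 note: signal also drops with host cell toxicity which is not excluded here; 0% = plate median of DMSO wells and 100% = zero luminescence signal; higher percent means less beta-gal luminescence so fewer parasites; stock transfer was 50 nL into about 50 µL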
Calb FLC: affects C. albicans growth with fluconazole; C. albicans CaCi-2 (fluconazole-resistant clinical isolate) + fluconazole, Alamar Blue growth, 48 h; growth inhibition, % (concentration not given with the values); 300,000 tested, 0.57% active;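 active = most replicates above 75%; inconclusive = exactly half above 75%; inactive = most below 75%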;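 note: all wells also contain fluconazole at 8 µg/ml as a sub-toxic cotreatment; 0% = median of DMSO wells and 100% = median of geldanamycin control wells; wells of about 8 µL received 7.5 nL stock; the first replicate is given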
UCH37 inh: human UCH37 deubiquitinating enzyme inhibition | purified proteasome/UCH37, Ub-AMC cleavage fluorescence | inhibition, % (test concentration not listed) | 330,000 tested, 0.33% active | AID 588478;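 active = mean of two replicates above 20%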;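 note: 0% = compound-free wells with enzyme and 100% = wells lacking proteasome; stock transfer was 100 nL into about 20 µL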
Target sequence (Q9Y5K5 whole entry, looked up): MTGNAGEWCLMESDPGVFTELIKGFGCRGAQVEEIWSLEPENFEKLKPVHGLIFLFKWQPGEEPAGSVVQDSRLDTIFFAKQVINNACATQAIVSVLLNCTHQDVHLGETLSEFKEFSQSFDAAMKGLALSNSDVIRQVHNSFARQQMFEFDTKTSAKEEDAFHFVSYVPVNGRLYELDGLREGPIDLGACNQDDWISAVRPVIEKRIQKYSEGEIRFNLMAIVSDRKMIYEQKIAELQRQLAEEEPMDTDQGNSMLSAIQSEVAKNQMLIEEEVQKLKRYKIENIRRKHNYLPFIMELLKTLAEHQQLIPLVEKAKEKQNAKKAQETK
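Material: Human UCH37 enzyme supplied as purified proteasome complex | Schedule: 30 min preincubation with enzyme, 25 min cleavage at room temperature | Detection: AMC fluorescence 355/460 nm | Measure: % inhibition of Ub-AMC cleavage fluorescence | Controls: Wells without proteasome as full block, compound-free enzyme plus substrate as uninhibited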
Beta apoptosis: beta cell apoptosis inhibition; 300,000 tested, 0.8% active; AID 435005; INS-1E cytokine-induced death, ATP luminescence, 48 h; percent of positive-control rescue, neutral wells zero; protection from apoptosis, % (no concentration beside the values);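 active = all replicates at 75% or more, or half of them and the mean; inconclusive = half reach 75% but not the mean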;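 note: 0% = cytokine-treated negative control wells and 100% = positive control rescue; higher means more ATP so stronger rescue from cytokine killing; wells of about 40 µL received 100 nL stock; the first replicate is given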
B2AR ag: human beta-2 adrenergic receptor agonism by FAP; P07550; Am2.2-beta2AR cells, FAP receptor internalization, flow cytometry; reference of the scale not given here; response, % (concentration not given with the values); 340,000 tested, 0.43% active; AID 504454;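 active = response above a set limit, near 3 SD of response in nonfluorescent compounds, cut at about 42% in these data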;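 note: stock transfer was 100 nL into about 11 µL; a reference agonist was the positive control; negative values mostly stem from fluorescent compounds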
Target sequence (P07550 whole entry, looked up): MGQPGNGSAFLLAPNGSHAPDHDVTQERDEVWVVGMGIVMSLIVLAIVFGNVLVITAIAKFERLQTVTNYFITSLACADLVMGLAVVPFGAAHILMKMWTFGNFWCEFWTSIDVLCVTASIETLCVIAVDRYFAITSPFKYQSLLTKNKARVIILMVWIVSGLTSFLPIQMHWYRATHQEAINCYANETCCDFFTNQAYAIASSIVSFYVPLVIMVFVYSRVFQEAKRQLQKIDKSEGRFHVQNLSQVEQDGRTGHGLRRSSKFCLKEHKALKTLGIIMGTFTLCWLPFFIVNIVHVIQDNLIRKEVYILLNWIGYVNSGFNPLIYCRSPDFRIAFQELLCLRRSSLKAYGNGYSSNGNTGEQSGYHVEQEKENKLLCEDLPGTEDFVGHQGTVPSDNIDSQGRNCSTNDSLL
LANA-H2A inh: blocks KSHV LANA binding to histone H2A/H2B; cell-free LANA-H2A/H2B peptide, fluorescence polarization; 320,000 tested, 0.6% active; Q9QR71; inhibition, % (no concentration beside the values); in the data active = inhibition mostly above about 10%, no sharp cut-off; inactive = mostly below about 6.7%;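 note: stock transfer was 7.5 nL into about 10 µL; 0% = median of vehicle wells and 100% = median of positive control wells; one replicate is shown; the record names a cut of 25% in any replicate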
* = called active by the depositor; ? = inconclusive; · = no result given. Rows were taken by chance. Share with any hit: about 4.3%.

molecule | RanGTP-Impb inh | A1 inh | T cruzi repl | Calb FLC | UCH37 inh | Beta apoptosis | B2AR ag | LANA-H2A inh
COc1ccc(C2C(C(=O)C(C)(C)C)=C(O)C(=O)N2Cc2ccccc2)cc1 (configuration not stated) | -1.1 | 1.3 | -11.0 | -16.5 | 3.9 | -1.4 | 3.9 | -3.8
O=C(CN(C(=O)CCC(=O)Nc1nccs1)c1cccc(F)c1)NCC1CCCO1 (configuration not stated) | ? | 0.3 | -8.8 | -0.7 | 5.0 | -3.7 | 0.5 | 5.0
CCCCOc1ccccc1C(=O)NCCCCCC(=O)O | 4.3 | 1.3 | -6.2 | -13.5 | 3.5 | 1.7 | 4.9 | -0.1
COc1ccc(C2NC(=O)N(C)C(C)=C2[N+](=O)[O-])cc1 (configuration not stated) | 1.4 | -0.4 | -6.6 | -4.0 | 3.1 | -3.0 | -2.8 | 4.7
Cc1ccccc1S(=O)(=O)Cc1ccc(C(=O)NCCCN2CCCC(C)C2)o1 (configuration not stated) | 1.8 | -0.7 | 4.7 | -0.7 | 3.7 | 1.3 | · | 0.6
CN(Cc1ccccc1)C1CC(=O)N(c2ccc(C(=O)O)cc2)C1=O (configuration not stated) | 7.5 | -1.0 | 0.5 | 2.8 | 3.3 | -1.8 | 16.3 | -7.4
Cc1nc2sc(-c3ccccc3)nn2c(=O)c1Br | ? | -11.4 | -7.2 | 32.2 | -2.8 | 5.9 | -10.5 | 4.7
Cc1sc2nc(CN3CCCCC3)nc(Nc3ccc4c(c3)OCCO4)c2c1C | 2.0 | 0.3 | 16.7 | -8.0 | 2.2 | 14.6 | -0.6 | -2.9
COc1ccc(CCNC(=O)/C=C/c2ccc(OC)c(S(=O)(=O)N3CCOCC3)c2)cc1 | 1.9 | -0.1 | -14.2 | -3.7 | 1.7 | 2.6 | 4.1 | -7.2
COC(=O)c1c(/N=C/N(C)C)sc2c1CCN(c1ncc(C(F)(F)F)cc1Cl)C2 | 9.2 | -0.8 | -12.9 | 1.3 | · | 3.9 | -8.1 | -5.3
COc1cccc(Nc2nc(N)nc(CCl)n2)c1 | -0.1 | 0.3 | 69.1* | -2.9 | 0.7 | -11.3 | -7.3 | 1.0
O=C(Cn1cnc2ccccc2c1=O)N1CCOCC1 | -3.1 | 0.2 | -14.4 | -4.3 | 2.2 | -1.8 | -9.9 | -9.7
CC1CCN(S(=O)(=O)c2ccc(Oc3ccc([N+](=O)[O-])cc3)cc2)CC1 | 3.9 | -0.1 | 0.0 | -27.3 | 1.1 | 13.6 | 18.1 | -0.9
CC(C)CN=c1cc(-c2ccccc2)oc2ccc(Cl)cc12 | 0.1 | -0.4 | 25.8 | 5.4 | 1.8 | 27.5 | -17.9 | 3.5
CC(=O)Nc1cccc(Oc2ccc([N+](=O)[O-])cc2Cl)c1 | 7.4 | -0.1 | 1.9 | 1.6 | 4.5 | 1.8 | -14.7 | 1.7
O=C(NC1CCS(=O)(=O)C1)c1ccc(-c2ccc(Br)cc2)o1 (configuration not stated) | 2.7 | -0.3 | 18.6 | 14.9 | -16.7 | -7.2 | 1.4 | -3.2
Cn1ccnc1SCC(=O)Nc1sccc1C#N | 0.4 | 0.5 | 7.6 | 3.4 | 1.4 | -7.5 | -14.6 | 6.8
CCCn1c(SCC(=O)Nc2nccs2)nnc1-c1cccnc1 | -2.4 | 0.5 | -0.8 | -7.4 | 2.7 | -2.7 | -1.1 | -0.4
CCCc1c(C(=O)O)cnn1-c1ccc(Cl)cc1 | 5.0 | 1.0 | -2.4 | 1.1 | 1.6 | -3.3 | 18.4 | -1.1
CSc1ccccc1C(=O)Nc1nc2ccccc2c(=O)[nH]1 | ? | -1.6 | -3.8 | -2.0 | 3.8 | -3.7 | 6.4 | -0.3

Given with values under each structure: entries from further up.
Fields: RanGTP-Impb inh	A1 inh	T cruzi repl	Calb FLC	UCH37 inh	Beta apoptosis	B2AR ag	LANA-H2A inh
- COc1ccc(C2C(C(=O)C(C)(C)C)=C(O)C(=O)N2Cc2ccccc2)cc1 (configuration not stated)
→ -1.1	1.3	-11.0	-16.5	3.9	-1.4	3.9	-3.8
- O=C(CN(C(=O)CCC(=O)Nc1nccs1)c1cccc(F)c1)NCC1CCCO1 (configuration not stated)
→ ?	0.3	-8.8	-0.7	5.0	-3.7	0.5	5.0
- CCCCOc1ccccc1C(=O)NCCCCCC(=O)O
→ 4.3	1.3	-6.2	-13.5	3.5	1.7	4.9	-0.1
- COc1ccc(C2NC(=O)N(C)C(C)=C2[N+](=O)[O-])cc1 (configuration not stated)
→ 1.4	-0.4	-6.6	-4.0	3.1	-3.0	-2.8	4.7
- Cc1ccccc1S(=O)(=O)Cc1ccc(C(=O)NCCCN2CCCC(C)C2)o1 (configuration not stated)
→ 1.8	-0.7	4.7	-0.7	3.7	1.3	·	0.6
- CN(Cc1ccccc1)C1CC(=O)N(c2ccc(C(=O)O)cc2)C1=O (configuration not stated)
→ 7.5	-1.0	0.5	2.8	3.3	-1.8	16.3	-7.4
- Cc1nc2sc(-c3ccccc3)nn2c(=O)c1Br
→ ?	-11.4	-7.2	32.2	-2.8	5.9	-10.5	4.7
- Cc1sc2nc(CN3CCCCC3)nc(Nc3ccc4c(c3)OCCO4)c2c1C
→ 2.0	0.3	16.7	-8.0	2.2	14.6	-0.6	-2.9
- COc1ccc(CCNC(=O)/C=C/c2ccc(OC)c(S(=O)(=O)N3CCOCC3)c2)cc1
→ 1.9	-0.1	-14.2	-3.7	1.7	2.6	4.1	-7.2
- COC(=O)c1c(/N=C/N(C)C)sc2c1CCN(c1ncc(C(F)(F)F)cc1Cl)C2
→ 9.2	-0.8	-12.9	1.3	·	3.9	-8.1	-5.3
- COc1cccc(Nc2nc(N)nc(CCl)n2)c1
→ -0.1	0.3	69.1*	-2.9	0.7	-11.3	-7.3	1.0
- O=C(Cn1cnc2ccccc2c1=O)N1CCOCC1
→ -3.1	0.2	-14.4	-4.3	2.2	-1.8	-9.9	-9.7

Later entries
molecule | RanGTP-Impb inh | A1 inh | T cruzi repl | Calb FLC | UCH37 inh | Beta apoptosis | B2AR ag | LANA-H2A inh
Cc1c(Cc2ccccc2)c(NCCCO)n2c(nc3ccccc32)c1C#N | ? | -0.8 | 20.7 | 0.4 | -34.5 | 6.6 | -3.2 | 2.5
O=C(C[n+]1cc(-c2ccccc2)n2c1CCCCC2)c1ccc(Br)cc1 | 0.2 | 1.8 | 20.4 | 2.9 | 4.0 | 8.1 | -0.5 | 0.0
Fc1ccc(Cn2nnnc2C(c2cccs2)N2CCCCCC2)cc1 (configuration not stated) | 1.8 | -0.9 | 10.2 | 25.9 | 2.4 | -4.4 | -6.4 | -1.0
CC(CN1CCCCC1)C(=O)NNC(=O)C12CC3CC(CC(C3)C1)C2 (configuration not stated) | 0.6 | 0.1 | 2.3 | -2.3 | -0.1 | -2.8 | 8.1 | -1.9
S=C(Nc1ccc2nsnc2c1)N1CCCCCC1 | -41.7 | -10.7 | 22.7 | -8.8 | 11.0 | 1.4 | -7.3 | 8.6
O=C(NCCOc1ccccc1)C1CCC(=O)N(C2CCCCCC2)C1 (configuration not stated) | -2.1 | -0.4 | -3.7 | 2.3 | 0.4 | · | 2.2 | -28.3
COc1nc(NCCC2=CCCCC2)nc(OC)n1 | -2.6 | 0.1 | 14.2 | 6.1 | 5.3 | -7.1 | -1.6 | -2.0
Cc1cc(N2C(=O)C3C4C=CC(C4)C3C2=O)ccc1NC(=O)c1cccs1 (configuration not stated) | -1.3 | -0.4 | 11.2 | 13.6 | 2.1 | 2.3 | -9.3 | -0.1
Cc1cc(C)nc(SC/C=C/c2ccccc2)n1 | 4.8 | -0.9 | -4.9 | 18.2 | 5.0 | · | -8.7 | 0.6
